High-throughput results from PubChem BioAssay.
MT1-MMP act inh: inhibitors of human MT1-MMP activation | HT1080 RFP-PRO-GFP cells, GFP/RFP ratio fluorescence, overnight; percent of plate control window, DMSO zero | GFP/RFP ratio change, % at 20 µM | hit rate 0.061% among 360,000;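 active means GFP/RFP ratio change of at least 30% with cell ATP level not reduced by more than half and red fluorescence within 50% of control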; further: strong numbers were not always called active
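Read-out: GFP/RFP fluorescence ratio; Test system: RFP-PRO-GFP reporter HT1080 cells; Compound dosing: single-point 20 µM compound, 1% DMSO; Times: overnight compound exposure at 37 °C.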
Yeast UUG start: yeast start codon fidelity modulation | S. cerevisiae UUG-firefly luciferase reporter, luminescence/redox ratio | activity score, % at 18.7 µM | hit rate 0.13% among 350,000;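 active means replicate mean at a twofold rise or more, about +100% in these data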;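 further: firefly luciferase made from a UUG start codon reports start codon fidelity; reporter light over untreated wells divided by growth signal over untreated wells; some hits fall short of that in this replicate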
eIF4H inh: inhibitors of RNA binding by human eIF4H; AID 2012; inhibition, % at 35 µM; hit rate 0.94% among 290,000; eIF4H fluorescence polarization binding assay; Q15056;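 active means 50% or more with normal probe brightness, or confirmed in later tests; inconclusive means above 50% with abnormal brightness, or retests that disagree; inactive means below 50% or failed in later tests; about a fifth of its hits are not listed in these tables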;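 further: calls also rest on retests at 20 µM and on dose response follow-up; 0% = protein and probe with vehicle and 100% = probe without protein; strong numbers were not always called active; many hits fall short of the cut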
PABP FP inh: PABP-poly(A) binding inhibition; P11940; PABP-poly(A) RNA binding, fluorescence polarization; inhibition, % at 35 µM; hit rate 1% among 290,000; AID 2014;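 active means 50% or more with normal probe brightness, or confirmed in later tests; inconclusive means above 50% with abnormal brightness, or retests that disagree; inactive means below 50% or failed in later tests; about a fifth of its hits are not listed in these tables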;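 further: calls also rest on retests at 20 µM and on dose response follow-up; controls were probe without protein and protein plus probe with vehicle; some compounds called inactive have numbers as strong as hits; many hits fall short of the cut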
Env fusion inh: blocks HIV Env-driven cell-cell fusion. HeLa-JRFL Env/CEM21 cell fusion, luciferase. inhibition, % at 12.3 µM. hit rate 1.1% among 360,000;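 active means mean replicate inhibition score of at least 50 and every replicate individually at or above 50; inconclusive means only one of the two criteria met; inactive means mean below 50 and not all replicates reaching 50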;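 further: 0% = plate neutral controls and 100% = maraviroc near 300 nM; one replicate is shown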
Rce1 inhib: blocks yeast Ras-converting enzyme; Q03530; yeast membranes, quenched prenylated peptide cleavage fluorescence; calls only; hit rate 0.27% among 290,000; AID 2563;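 active means fall in fluorescence gain of 50% or more versus controls, with final raw signal at or below 3038400; inconclusive means same 50% fall but final raw signal above 3038400; inactive means fall in fluorescence gain under 50%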;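 further: plate controls were neutral control wells for no effect and wells lacking membranes for full effect; tested at 10 µM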
Target sequence (Q03530 whole entry, looked up): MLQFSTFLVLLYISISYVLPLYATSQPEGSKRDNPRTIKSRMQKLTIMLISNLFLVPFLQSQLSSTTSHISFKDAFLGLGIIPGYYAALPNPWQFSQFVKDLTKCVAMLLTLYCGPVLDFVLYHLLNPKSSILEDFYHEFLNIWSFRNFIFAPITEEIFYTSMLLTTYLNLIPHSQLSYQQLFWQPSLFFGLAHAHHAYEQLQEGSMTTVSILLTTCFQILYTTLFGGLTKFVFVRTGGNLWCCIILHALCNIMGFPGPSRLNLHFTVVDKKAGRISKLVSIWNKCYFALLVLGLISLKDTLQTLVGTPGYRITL
CSC inhib: blocks cancer stem cells; cancer stem cell-like cells viability, luminescence; inhibition, % at 7.5 µM; hit rate 1.1% among 300,000; AID 2717;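 active means mean at 75% or more and at least half the replicates too; inconclusive means mean and replicates disagree; tested in HMLE shEcad cells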;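 further: 0% = median of negative and 100% = median of positive control wells; the first replicate is given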
MT1-MMP act inh RFP: second read-out of MT1-MMP act inh, no call of its own (marks repeat the call); RFP signal change, %; measured here: RFP expression control read;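 0 = vehicle wells; hits needed this value within 50% of zero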
The depositor's hits bear a star; i = inactive; ? = inconclusive; nt = not tested or not shown. This is a random part of the collection. About 3% of those tested had a hit in this group.

mol	MT1-MMP act inh	MT1-MMP act inh RFP	Yeast UUG start	eIF4H inh	PABP FP inh	Env fusion inh	Rce1 inhib	CSC inhib
O=C(CCCCCn1c(=S)[nH]c2cc3c(cc2c1=O)OCO3)NCCc1ccccc1	0	-1	-26	-3	-13	-1	i	-12
Cn1c(=O)n(CC(=O)O)c(=O)c2c1nc1n2CCCN1CCc1ccccc1	0	0	-19	-3	6	5	i	-1
CC(=N)c1c(O)cc(C)oc1=O	0	2	-8	nt	nt	-13	nt	nt
CCCN(CC(=O)Nc1ccccc1OC)C(=O)Cn1c(=O)oc2ccccc21	-4	3	-16	nt	nt	-6	nt	nt
CCc1ccc(S(=O)(=O)N/N=C\c2ccc([N+](=O)[O-])o2)cc1	2	5	-16	-6	6	1	i	-7
CC1(C(=O)NS(=O)(=O)c2ccccc2Cl)CCN1C(=O)Cc1ccccc1Cl (stereo unspecified)	-2	2	-11	nt	nt	-13	nt	nt
COCCNC(=S)N/N=C/c1c(C)[nH]c2ccccc12	1	-5	nt	3	-17	11	i	-8
CCOC(=O)C(=O)Nc1ccccc1C(=O)OC	2	2	nt	-1	-4	10	i	-4
COc1ccc(CN(CC(=O)NC2CCCC2)C(=O)c2onc(C(N)=O)c2N)cc1	0	-1	-11	8	3	-30	i	-25
COC(=O)[C@@]12CCCCN1[C@H](c1ccc(-c3ccc(OC)cc3)cc1)[C@@H]1C(=O)N(C)C(=O)[C@@H]12	-1	-9	-2	nt	nt	25	i	15
CC(=O)NC(Cc1ccc(F)c(F)c1)C(=O)NC1CCN(S(=O)(=O)c2ccc(C)cc2)CC1 (stereo unspecified)	0	1	-6	-15	-4	-5	i	nt
Cc1ccc(N2CCN(CC(O)COc3ccccc3)CC2)cc1 (stereo unspecified)	-4	-1	-6	-2	6	2	i	-5
O=C(C1CCCC1)N1CCC(CO)(Cc2ccccc2Cl)CC1	0	3	nt	-10	4	9	i	-7
Cc1nc([N+](=O)[O-])cn1CC(O)c1ccccc1 (stereo unspecified)	1	3	-11	-3	-3	-24	i	0
COc1ccc(N2CCN(C(=O)C3CCC(Cn4c(=S)[nH]c5ccccc5c4=O)CC3)CC2)cc1 (stereo unspecified)	-8	-20	-13	-8	-5	74*	i	60
Cc1ccc(Nc2nc(N)c([N+](=O)[O-])c(NCCO)n2)cc1C	-5	-7	-21	-8	7	-11	i	nt
COc1cccc(CNS(=O)(=O)c2ccc(S(=O)(=O)NC3CC3)cc2)c1	3	0	-7	4	6	-6	i	-13
Cc1ccc(NC(=S)NCc2ccccc2)c(C)c1	-3	-2	-14	-8	0	-2	i	5
O=C(NCc1ccccc1)/C(=C\c1ccccc1)NC(=O)c1ccco1	0	0	-14	-10	-4	0	i	-21
N#CCCNS(=O)(=O)c1ccc(C(=O)OCCCOC(=O)c2ccc(S(=O)(=O)NCCC#N)cc2)cc1	0	12	-1	-2	4	7	i	-5
CCN(CC)C(=O)C1=C(C)N(Cc2ccc(OC)cc2)C(=O)C(CC(=O)NCc2cccs2)C1 (stereo unspecified)	6	5	0	nt	nt	9	nt	nt
COc1cc(NC(=O)c2ccnn2C)c(OC)cc1Cl	0	-2	nt	2	-6	-3	nt	nt
CCN(c1ccccc1)S(=O)(=O)c1ccc(OC)c(NC(=O)C2=NN(c3ccccc3)C(=O)CC2)c1	-6	-7	-6	nt	nt	21	nt	nt
Cc1csc(NC(=O)CSc2nc3ccccc3s2)n1	9	5	1	-1	-5	-45	i	-17
CC(=O)NCCc1ccc(S(=O)(=O)N2CCN(c3nc(-c4ccccc4)c(C)s3)CC2)cc1	0	-4	-7	2	8	22	i	-2
Cc1ccc(C)c(C(=O)COC(=O)CCN2C(=O)C3C4CCC(C4)C3C2=O)c1 (stereo unspecified)	0	3	-10	-15	2	-2	i	nt
COc1ccc(CCN2C(=O)N(c3ccc(OC)cc3)C(=O)C2CC(=O)Nc2ccccc2)cc1 (stereo unspecified)	0	1	0	4	7	15	i	4
CCCCOC(=O)c1ccc(NC(=O)c2ccccc2OC)cc1	-3	-18	nt	0	38	nt	i	10
O=C(COc1ncnc2ccccc12)NCc1ccc2c(c1)OCO2	4	5	nt	-3	3	nt	i	0
CCC(=O)Nc1cccc(NC(=O)CSc2nnnn2Cc2ccccc2)c1	-11	-3	-10	1	3	-22	i	nt
CCOC(=O)C1C(=O)C=C(c2ccc([N+](=O)[O-])cc2)CC1c1ccccc1 (stereo unspecified)	4	-7	-15	-11	9	-104	i	nt
CCNC(=O)CN(CCc1ccccc1)S(C)(=O)=O	1	7	-15	-10	-7	nt	i	-2
COc1ccc(NC(=O)CSc2nnc(C3CCCCC3)n2N)cc1	1	3	-14	2	-7	-192	i	-9
CC(C)(CC(=O)O)CC(=O)Nc1cc(C(F)(F)F)cc(C(F)(F)F)c1	0	3	-7	-7	-2	15	i	1
CC(C)C(N)c1csc(Nc2ccc(C(=O)N(C)Cc3ccccc3)cn2)n1 (stereo unspecified)	-5	-1	-5	nt	nt	1	nt	nt
Cc1ccc(Oc2ncnc(N)c2[N+](=O)[O-])cc1C	-4	-4	-16	-2	16	25	i	-5
CCc1nnc(NC(=O)CSc2nnc(-c3ccccc3O)n2-c2ccc(C)cc2C)s1	-8	-12	0	3	-9	nt	i	34
Cc1oc2c(cc(NS(=O)(=O)c3cccs3)c3ccccc32)c1C(=O)OC(C)C	-23	-14	-13	-2	-2	nt	i	2
O=C(COc1ccc(CO)cc1Cl)Nc1ccc(F)cc1	8	2	-65	-9	-7	i	i	-14
CC(C)(C)c1ccc(NC(=O)NCc2ccco2)cc1	5	-1	-16	-6	-4	nt	i	41
COc1ccc(NC(=O)Cn2c(-c3ccccc3)cn(-c3ccc(C)cc3)c2=O)cc1	-1	-3	-15	-13	-1	14	i	-17
O=C(c1ccco1)N1CCN=C1SCc1ccccc1Cl	1	2	-9	-5	-3	-4	i	-1
COc1ccccc1NC(=O)C1CC(C)OC1=O (stereo unspecified)	-3	-1	-22	nt	nt	11	i	-3
O=C(NC1CCCCC1)c1cc(-c2ccccc2Cl)on1	-2	-1	nt	-11	-7	-40	i	3
COc1ccccc1NS(=O)(=O)c1cc(C(=O)NCCC(C)C)ccc1F	1	-5	12	12	12	-6	i	-4
Cc1nc(N/N=C/c2cccnc2)cc(N2CCOCC2)n1	5	3	-3	nt	nt	-3	nt	nt
Nc1cc(C(=O)OCC(=O)NCCNC(=O)COC(=O)c2ccc(Cl)c(N)c2)ccc1Cl	-3	3	-8	-13	21	-4	i	-5
CN(CC(=O)Nc1ccc(F)cc1)C(=O)COC(=O)/C=C/c1ccccc1[N+](=O)[O-]	8	1	-16	nt	nt	-7	nt	-9
CCCNC(=O)C1(C)CCCN(C(=O)Cc2ccc3ccccc3c2)C1 (stereo unspecified)	0	3	-6	nt	nt	-24	nt	nt
COc1ccc(/C=N/NC(=O)c2nn(-c3ccc(C)c(C)c3)c(=O)c3ccccc23)cc1	0	5	nt	-5	-9	nt	i	7
C/C(=N\NC(=O)c1ccccc1Cl)c1ccccn1	2	2	-21	22	-7	-23	i	33
CCOC(=O)c1cc(CC)sc1NC(=O)c1ccc([N+](=O)[O-])c(N2CCOCC2)c1	-1	0	nt	-5	1	nt	i	32
Cc1cc(C)c(NC(=O)/C=C\C(=O)O)c([N+](=O)[O-])c1	-3	-4	-29	-5	3	nt	i	3
O=C(Cc1ccc(F)cc1)Nc1c(C(=O)N2CCN(c3ncccn3)CC2)oc2ccccc12	-4	2	-9	-14	-3	0	i	-6
Cc1nn(-c2ccccc2)c(C)c1/C=C/C(=O)OC(C)C(N)=O (stereo unspecified)	6	-1	-13	-5	-7	-8	i	5
Cc1ccc2nc(N3C(=O)C(O)=C(C(=O)c4ccco4)C3c3ccc(O)cc3)sc2c1 (stereo unspecified)	-3	2	-9	-12	29	-5	i	-4

Next part:
mol	MT1-MMP act inh	MT1-MMP act inh RFP	Yeast UUG start	eIF4H inh	PABP FP inh	Env fusion inh	Rce1 inhib	CSC inhib
O=C(C1CCCN(Cc2cc(Br)ccc2O)C1)N1CCCCC1 (stereo unspecified)	-1	3	-5	3	5	15	i	-26
COc1ccc(-n2nc3ccc(N)cc3n2)cc1	0	5	-4	nt	nt	-22	nt	nt
O=C(Nc1ccc(N2CCN(C(=O)c3ccco3)CC2)cc1)c1ccco1	-3	0	-8	5	7	8	i	-1
O=C(CNC(=O)c1ccc(Br)o1)Nc1ccccc1	-1	-2	-25	-11	-12	4	i	-7
CC1CC1C(=O)OCC(=O)NC(=O)c1ccc(C(C)(C)C)cc1 (stereo unspecified)	3	2	-3	nt	nt	14	nt	nt
CC(=O)COC(=O)C1CCN(S(=O)(=O)c2cc([N+](=O)[O-])ccc2Cl)CC1	-2	-1	1	36	9	-7	i	-11
O=C(Nc1nc(-c2cc(F)ccc2F)cs1)C1=COCCO1	4	-1	-11	nt	nt	-106	i	nt
CC1CCCCN1S(=O)(=O)c1ccc(N(C(=O)c2cnccn2)C(C(=O)NC2CCCCC2)c2cccs2)cc1 (stereo unspecified)	-1	-3	nt	-4	-4	46	i	0
CCCC(=O)c1cn(CC(=O)OC)c2ccccc12	1	6	-16	-5	4	nt	i	5
Cc1ccnc(NS(=O)(=O)c2ccc(NS(C)(=O)=O)cc2)n1	2	5	-14	1	-6	1	i	-7
Cn1cc(CN2CCN(Cc3ccccc3)CC2)c(-c2cccc(Cl)c2)n1	1	3	nt	2	3	6	i	-4
NC(=O)/C(=C/c1ccc2c(c1)OCO2)NC(=O)c1ccco1	-1	2	nt	3	13	2	i	-12
CCCC(C(=O)NC1CCCC1)N(Cc1ccc(F)cc1)C(=O)c1snc(C(N)=O)c1N (stereo unspecified)	-1	0	nt	-11	-3	7	i	-6
O=C(Nc1ccccc1C(=O)O)c1cccc(N2C(=O)c3ccccc3C2=O)c1	6	8	-23	-14	13	26	nt	-10
Cc1cccc2sc(NNC(=O)c3ccc4c(c3)OCCO4)nc12	2	6	-24	4	7	-23	i	16
O=S(=O)(NC1CC1)c1ccc2c3c(cccc13)CC2	4	0	6	1	-4	20	i	-1
C#Cc1ccc(CN2CCC(C(=O)Nc3ccc(Oc4ccccc4)nc3)CC2)cc1	-1	-18	-11	-5	-10	10	i	1
Cc1ccc(NS(=O)(=O)c2ccc(C)c(C(=O)N3CCOCC3)c2)cc1	0	6	-4	1	-15	-12	i	15
COc1cc(-c2noc(C)c2C(=O)NCCCn2ccnc2)cc(OC)c1OC	-1	1	-17	nt	nt	?	nt	-11
CC(C)n1cnnc1SCC(=O)NCC(=O)Nc1ccc(F)cc1	-1	0	-9	nt	nt	4	nt	-10
O=C(CCCCn1c(=O)[nH]c2ccccc2c1=O)NC1CCN(Cc2ccccc2)CC1	0	2	-32	-6	-4	18	i	2
O=C(c1ccc(F)cc1)N1CCCC(C(=O)N2CCc3ccccc3C2)C1 (stereo unspecified)	7	-3	nt	7	0	13	i	16
NS(=O)(=O)c1ccc(NC(=O)C2CCCO2)cc1 (stereo unspecified)	nt	nt	nt	3	0	nt	i	-3
COc1cccc(CNC(=O)c2cnc(-c3ccccn3)nc2C(F)(F)F)c1	-1	-3	-10	2	-11	2	i	-16
COc1ccc2nc(SCC(=O)Nc3c(C)cccc3C)[nH]c2c1	3	0	-23	4	-10	9	i	8
